# S aureus helic: blocks Staphylococcus aureus DNA helicase. purified S. aureus helicase, fluorescence unwinding assay; about half of the hits fall short of the stated cut. inhibition, %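 (tested at about 80 µM)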. 120,000 tested, 0.05% active. AID 485395;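 active = both duplicates at 50% or more, or one of them with a favoured structure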;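 note: 0% = mean of negative control wells and 100% = mean of positive control wells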
# MgrA DNA FP: S. aureus MgrA-DNA binding modulation | fluorescence polarization | inhibition, %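 (about 10 µg/mL by stock and volumes)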 | 84,000 tested, 0.13% active | AID 602314;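 active = above 50% in either of two replicates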;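 note: 0% = protein plus DNA without compound and 100% = DNA alone without protein; higher means less MgrA bound to DNA so lower polarization; one replicate is shown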
# Numbers without * were called inactive; . = no result given; & = joins results of further samples. Some of the compounds tested, so the mix of outcomes need not match the whole.
SMILES,S aureus helic,MgrA DNA FP
c1csc(CNC23CC4CC(CC(C4)C2)C3)c1,-4,.
O=C(NN=C1C2CC3CC(C2)CC1C3)c1cccs1,17,.
Cc1ccc(-c2cc(C(N)=O)on2)cc1,14,-1.5
CCN(CC)c1nc(-c2ccccc2)nc(-c2ccccc2)c1C#N,.,-0.4
O=C(c1cnn2ccccc12)N1CCc2ccccc21,18,-1.9
O=C(O)c1cccc2c1C(=O)N(C1CCCCC1)C2,4,3.9
O=C(CN1CCCCCC1=O)OCc1cc(Cl)cc2c1OCOC2,-7,.
CCN1CCC(NCc2ccccc2C(F)(F)F)CC1,-4,-3.8
COc1ccc(CCNC(=O)CSc2nnc(C)s2)cc1OC,5,0.6
CC(=O)N1CC=C2C(C#N)=C(N)C(C#N)(C#N)C(C)C2C1 (stereo unspecified),9,-0.2
O=C(Sc1ccccn1)N1c2ccccc2Sc2ccccc21,8,1.4
Cc1noc(C)c1CC(=O)N1CCN(S(=O)(=O)c2ccc3c(c2)OCCCO3)CC1,10,.
COc1ccccc1N(C)S(=O)(=O)c1ccc(C(=O)Oc2ccc(-c3nnco3)cc2)cc1,0,.
Oc1[nH]c(=S)sc1N=Nc1ccc(F)cc1F,-119,.
CC(C)(C)OC(=O)N1Cc2ccccc2CC1C(=O)NCc1cccs1 (stereo unspecified),.,3.5
O=C(O)Cn1ncc2c3ccccc3n(Cc3ccc(Cl)cc3)c2c1=O,-26,.
Fc1cc(F)cc(COc2cc(Cl)cc(Cl)c2)c1,.,-1.7
CC(C)(C)c1ccc(C(=O)Nc2cccc(C(F)(F)F)c2)cc1,3,1.7
CCn1cc(C(=O)NN)c(=O)c2cc(F)c(NN)cc21,4,-0.5
CC1=NN(c2cc(Cl)cc(Cl)c2)C(=O)CC1,.,-1.2
COC(=O)CSc1nc(N2CCOCC2)c2c(c1C#N)CC(C)(C)OC2,28,.
COc1ccc(C(=O)Oc2ccc3oc(=O)sc3c2)cc1,-2,-1.9
O=C(COc1ccc(Cl)cc1)Nc1ccc2oc(-c3c(F)c(F)c(F)c(F)c3F)nc2c1,-7,1.9
O=C(O)CSc1nccc2ccccc12,3,-2.4
Cc1cccc(NC(=S)N(C2CCCCC2)C(C)c2ccco2)c1 (stereo unspecified),-4,.
Cc1nc2cc(NC(=O)c3ccc(S(=O)(=O)N(C)C)cc3)ccc2s1,.,-2.2
Cc1cc(C)c(NS(=O)(=O)c2cc([N+](=O)[O-])ccc2C)c(C)c1,.,-2.7
COc1ccc(CNCc2ccco2)cc1,4,-8.3
O=[N+]([O-])c1cc(OCc2ccccc2)c(OCc2ccccc2)c(OCc2ccccc2)c1,.,-0.8
CCOC(=O)N1CCN(C(=O)C(CC(C)C)NC(=O)C2CCCCC2)CC1 (stereo unspecified),8,.
O=C(CSc1nnc2sc3ccccc3n12)N1CCOCC1,-13,.
N#CCc1nc(-c2ccc(F)c(F)c2)cs1,.,-0.2
Cc1cc(=O)oc2n[nH]c(-c3ccccc3)c12,9,-1.1
CCn1nnc2c(N3c4ccccc4CC3C)ncnc21 (stereo unspecified),5,.
O=c1oc2ccccc2c(O)c1Sc1ccccc1,6,1.2
O=C1CC/C(=C\C(=S)N2CCOCC2)N1,13,.

# Compound profiles (already shown).
# O=[N+]([O-])c1cc(OCc2ccccc2)c(OCc2ccccc2)c(OCc2ccccc2)c1 is entered as S aureus helic = .; MgrA DNA FP = -0.8
# O=C1CC/C(=C\C(=S)N2CCOCC2)N1 is entered as S aureus helic = 13; MgrA DNA FP = .

# Remaining list, next part:
SMILES,S aureus helic,MgrA DNA FP
COc1ccc(CCNC(=O)C2CCCN2S(=O)(=O)c2cccc3nsnc23)cc1OC (stereo unspecified),6,.
S=C(Nc1cccc2ccccc12)NN1CCOCC1,7,0.6
COc1ccccc1NC(=O)C1=C(C)NC(=O)NC1c1ccco1 (stereo unspecified),-8,.
CN1/C(=C\C(=O)CSc2nc3ccccc3o2)C(C)(C)c2ccccc21,11,.
O=C(CC1COc2ccccc2O1)NCCc1ccccc1 (stereo unspecified),6,-2.6
Cc1cccc(N2C(=O)CSC23C(=O)N(CN2CCOCC2)c2ccccc23)c1 (stereo unspecified),-13,.
O=C(NCc1ccc(Cl)cc1)c1ccccc1,.,-1.9
O=C(CN1C(=O)c2ccccc2C1=O)c1ccc(F)cc1,.,-2.4
O=C(Cn1cc(C(F)(F)F)ccc1=O)N1CCc2ccccc21,-13,.
CCOc1ccc(NC(=O)CSc2ncnc3ccccc23)cc1,-22,.
O=C(Nc1ccccc1-c1ccccc1)NC1CCN(CC(=O)N2CCOCC2)CC1,12,-2.4
Cc1nc2scc(C)n2c(=O)c1S(=O)(=O)NC1CCCCC1,-10,.
CC(C)c1ccccc1N=Cc1ccc[nH]1,2,-0.2
O=C(NCCO)c1ccc(C(=O)NCCO)cc1,3,-5.6
COc1c(F)c(F)c(/C=C/CN2CCOCC2)c(F)c1F,-5,0.2
CCOC(=O)c1oc2ccccc2c1N=Cc1c(O)n(CCOC)c(=S)[nH]c1=O,-26,.
CC(C)N(C(=S)Nc1cccnc1)c1ccccc1,-4,.
Cc1nn(C)c(C)c1CS(=O)(=O)c1ccccc1,.,-0.1
COc1ccc(NC(=O)CN2CCC(c3nc4ccc(Cl)cc4[nH]3)CC2)c(OC)c1,-1,18
Cc1cc(C(=O)CC2=C(O)CC(C)(C)CC2=O)c(C)n1Cc1cccs1,-6,.
CCCc1nnc(SCC(=O)NC2CC3CCC2C3)o1 (stereo unspecified),-5,-0.2
C=CC[n+]1ccccc1/C=N/O,3,0.0
COc1ccc(-c2noc(N3CCCC(C(=O)NCCc4ccc(OC)c(OC)c4)C3)n2)cc1 (stereo unspecified),-4,0.1
Cc1cc(=O)n(CCCO)c(O)c1C#N,-24,.
O=C(COC(=O)c1ccco1)Nc1ccccc1,-19,0.3
Cc1ccc(-n2c3nc4ccccc4nc3c3c(=N)oc(C)nc32)cc1,8,.
CN(C(=O)/C=C/c1ccco1)c1ccccc1C(=O)O,-5,.
O=C(CSc1ncnc2sc3c(c12)CCCC3)c1cccs1,-8,.
CCN(C(=O)Cn1c(=O)n2nc(CCn3nc(C)cc3C)nc2c2ccccc21)c1cccc(C)c1,14,0.9
Cc1ccc2[nH]cc(NC(=O)NCCc3ccccc3)c(=O)c2c1,-14,.
Cc1onc(-c2ccccc2Cl)c1C(=O)N(CCC#N)Cc1ccccc1,.,-1.9
Nc1c(NCCN2CCCC2)c2ccccc2oc1=O,4,.
CN1C(=O)C(CC(=O)Nc2ccc3c(c2)Cc2ccccc2-3)N(C)C1=O (stereo unspecified),8,1.6
COC(CNC(=O)c1csc2c1CCCC2)OC,16,-0.2
CN(C)C(CC(=O)Nc1ccc(Cl)c(Cl)c1)C(=O)O (stereo unspecified),7,.
Cc1ccc(-c2c(C#N)c(SCC(=O)c3ccc(O)c(O)c3)nc3c2CCCC3)o1,.,-0.4
Cn1c(-c2ccccc2)cnc1NCc1ccccc1,6,1.4
Clc1ccccc1-c1nnc2sc(Nc3ccccc3)nn12,-1,5.3
CC(C)=CCC/C(C)=N\n1cnnc1,-21,1.1
CCOC(=O)c1cnc(Nc2nc3ccccc3o2)nc1-c1ccccc1,10,.
c1cnn(-c2ccc(-c3cnco3)cc2)c1,.,-2.0
COc1ccc(NC(=O)CC2C(=O)NCCN2C(=O)c2ccc(C(C)(C)C)cc2)cc1 (stereo unspecified),.,0.7
O=C(COC(=O)C1Cc2ccccc2CN1C(=O)c1ccco1)Nc1ccc(F)cc1 (stereo unspecified),-4,.
COc1ccccc1-c1nnn(CC#N)n1,1,-0.7
C/C(=N\OCC(=O)NC12CC3CC(CC(C3)C1)C2)c1cc2ccccc2o1,-4,.
O=C(O)C1C2C=CC(CC2)C1C(=O)O (stereo unspecified),.,7.5
C=CCNC(=O)CCN1N=C(c2ccc(C)cc2)CCC1=O,6,-0.9
CCN(CC)C(=O)c1sc(NC(C)=O)c(C(=O)OC)c1C,6,2.4
COc1cccc(C2NC(CC(C)C)(C(=O)O)C3C(=O)N(c4ccc(F)cc4)C(=O)C23)c1 (stereo unspecified),-21,.
N#Cc1cnc(SCc2ccccc2)nc1N,-7,-1.5
C=CCNC(=S)C(=O)Nc1ccccc1,5,0.2
CCOC(=O)CSc1sc(C(=O)OCC)c(C)c1C#N,.,2.6
CNC(=O)CCCc1nnc2n(C)c(=O)c3sccc3n12,3,1.2
O=C(NC1CCCCC1)NC12CC3CC(CC(C3)C1)C2,9,0.4
N#Cc1ccc(OCC(O)CNCCC2=CCCCC2)cc1 (stereo unspecified),3,.
COc1ccc(N=Cc2nc(-c3ccccc3Br)oc2O)c([N+](=O)[O-])c1,.,4.2
CC(C)(Oc1ccc(C2CC2(Cl)Cl)cc1)C(=O)O (stereo unspecified),.,-4.8
Nc1nc2ccccc2n1CCN1CCCC1,7,.
COC(=O)c1ccc(=O)oc1,19,-1.2
COc1ccc(-c2[nH]ncc2C=C(C#N)C#N)cc1,-57,.
# (listing goes on)
SMILES,S aureus helic,MgrA DNA FP
O=C1OC(c2ccccc2)=N/C1=C\c1ccsc1,.,-2.6
CCNCc1ccc2c(c1)OCO2,-3,.
O=C(CC(NCCc1ccccc1)C(=O)O)Nc1ccc(Cl)cc1 (stereo unspecified),-17,.
O=C(O)CNC(=S)N(Cc1ccccc1)Cc1cccnc1,5,-2.0
COc1cc(C2SCCS2)cc(Br)c1O,.,-0.3
CSC(=C(C#N)C#N)N1CCCC1,-4,.
CC1=CC(=C(C#N)C#N)C=C(c2ccccc2)N1Cc1ccco1,0,.
O=C(NC1CCNCC1)C1CCCC1,-4,-1.1
COc1ccc(OC)c(C2NC(=O)N(C)C(C)=C2C(=O)OCCOc2ccccc2)c1 (stereo unspecified),.,-0.4
CC1CCCC(C)N1C(=O)CSCc1cccc(S(=O)(=O)N2CCOCC2)c1 (stereo unspecified),-5,.
FC(F)(F)c1nc2ccccc2n1-c1cc(-c2ccccc2)[nH]n1,9,-0.3
Clc1nc(N2CCCc3ccccc32)nc(N2CCCc3ccccc32)n1,0,0.9
CC1CC(C)CN(CCCNC(=O)Cc2c(C(=O)O)n(C)c3ccccc23)C1 (stereo unspecified),8,-0.6
O=C(O)COC12CC3CC(CC(C3)C1)C2,-3,-2.8
CC(C)(C)OC(=O)N1CCCC1C(=O)Oc1ccc2c(c1)oc(=O)c1ccccc12 (stereo unspecified),14,.
c1ccc2[nH]c(-c3cscn3)nc2c1,.,-2.0&1.9
O=C(O)c1cccc(N2C(=O)/C(=C/c3ccccc3)SC2=S)c1,-2,.
CCCN1CCC(N2CCN(CCO)CC2)CC1,12,1.8
OCCNC(=S)c1ccccc1,.,0.1
Nc1nc(CSc2nc3ccccc3o2)cs1,10,.
C=CCn1c2ccccc2c2nnc(SCC(=O)Nc3c(C)n(C)n(-c4ccccc4)c3=O)nc21,4,.
COc1ccc(NC(=O)CCc2ccc(C)o2)cc1,-6,.
COc1ccccc1/C=N/n1c(SCC(=O)O)nnc1C1CCCCC1,-5,.
CC(C)CCNS(=O)(=O)c1ccc2[nH]c(=O)oc2c1,-10,.
CCN(CC)S(=O)(=O)c1ccc(/C=C/C(=O)Nc2cccc(C)c2)cc1,-22,1.8
CC(=O)OCC12COC(C)C(C(C)=CC1C)C2C (stereo unspecified),-3,-1.0
CC(C)(C)c1ccc(C2CC(=O)c3cnc(N)nc3C2)cc1 (stereo unspecified),-12,3.4
NNC(=O)c1nc2ccccc2c(=O)[nH]1,.,-1.5
Cn1cc(/C=C2\SC(=O)NC2=S)c2ccccc21,-20,.
CCN(C(=O)CCc1nc(-c2ccccc2F)no1)c1cc(OC)ccc1OC,21,.
CCN1CCc2c(OCC(=O)Nc3ccccc3)cccc2C1=O,19,.
CC(CC(=O)N(C)Cc1ccccc1)S(=O)(=O)c1ccc2c(c1)SCC(=O)N2 (stereo unspecified),-4,0.6
Cc1ccc(NC(=O)c2cnc(SCC(=O)NCc3ccc4c(c3)OCO4)n(C)c2=O)cc1,4,.
CCN1CCSc2ccc(C(=O)NC3CC3)cc21,-2,1.1
Cc1csc(NC(=O)CCCC(=O)O)c1-c1nc2ccccc2s1,.,13
CCOCCOC(=O)C1=C(C)NC2=C(C(=O)CC(c3ccc(Cl)cc3)C2)C1c1cc2c(cc1Br)OCO2 (stereo unspecified),.,2.6

# Four entries out of the list above, sorted by the number in MgrA DNA FP, rising:
SMILES,S aureus helic,MgrA DNA FP
CC(=O)OCC12COC(C)C(C(C)=CC1C)C2C (stereo unspecified),-3,-1.0
CC(CC(=O)N(C)Cc1ccccc1)S(=O)(=O)c1ccc2c(c1)SCC(=O)N2 (stereo unspecified),-4,0.6
CCOCCOC(=O)C1=C(C)NC2=C(C(=O)CC(c3ccc(Cl)cc3)C2)C1c1cc2c(cc1Br)OCO2 (stereo unspecified),.,2.6
Cc1csc(NC(=O)CCCC(=O)O)c1-c1nc2ccccc2s1,.,13

# (further entries)
SMILES,S aureus helic,MgrA DNA FP
Cc1cc2c(=O)[nH]nc(N)c2c(=O)[nH]1,-16,.
COC(=O)[C@H]1[C@H]2C[C@@H]3c4[nH]c5cc(OC)ccc5c4CCN3C[C@H]2C[C@@H](OC(=O)c2cc(OC)c(OC)c(OC)c2)[C@@H]1OC,.,2.5&2.5
CC(C)CCN(Cc1ccco1)S(=O)(=O)c1ccc(-c2ccc(=O)[nH]n2)s1,5,.
CNC(=O)C1CCN(c2nc3c(C)cc(C)cc3s2)CC1,3,.
O=C(c1cccs1)N1CCC(n2nc(-c3ccccc3)oc2=O)CC1,3,.
CCn1c(C(=O)N2CCC(C(=O)N3CCN(c4ccccc4)CC3)CC2)cc2sccc21,20,.

# No new results follow: entries from further up.
SMILES,S aureus helic,MgrA DNA FP
Cc1noc(C)c1CC(=O)N1CCN(S(=O)(=O)c2ccc3c(c2)OCCCO3)CC1,10,.
COc1ccccc1N(C)S(=O)(=O)c1ccc(C(=O)Oc2ccc(-c3nnco3)cc2)cc1,0,.
Oc1[nH]c(=S)sc1N=Nc1ccc(F)cc1F,-119,.

# Screens (PubChem BioAssay)
